ID4 SMM: binds human ID4 protein on microarray; hit rate 1.2% among 31,000; calls only; AID 624137; small molecule microarray, Flag-ID4 binding, fluorescence F/B;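 active means spot signal over background at p below 0.07 in all four prints; compounds were printed on slides so no solution concentration is given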;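 further: a binder raises fluorescence above local background on the spot; about 2 pmol printed per array spot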
Target sequence (P47928 whole entry, looked up): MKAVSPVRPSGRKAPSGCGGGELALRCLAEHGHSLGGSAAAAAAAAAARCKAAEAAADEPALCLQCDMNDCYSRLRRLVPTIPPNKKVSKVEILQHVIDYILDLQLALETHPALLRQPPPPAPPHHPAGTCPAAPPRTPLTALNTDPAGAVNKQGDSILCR
Calls only; i = inactive.

COC(=O)C12CC3CC(C(C)O)C1N(CCc1c2[nH]c2cc(OC)ccc12)C3 (stereo not drawn)
  ID4 SMM: i

CCN1C[C@]2(C)CC[C@H](OC)[C@@]34C2[C@H](O)C([C@@H]13)[C@@]1(OC)C[C@H](OC)[C@H]2C[C@@H]4[C@@H]1[C@H]2O
  ID4 SMM: i

CCc1ccc(NC2=NCCS2)cc1
  ID4 SMM: i

OC[C@H]1O[C@@H](n2cnc3cc(Cl)c(Cl)cc32)C(O)[C@H]1O (stereo partly drawn)
  ID4 SMM: i

C/C=C(\C)C(=O)OC1C(C)=C2C(C1OC(=O)CCCCCCC)C(C)(OC(C)=O)CC(OC(=O)CCC)C1(O)C2OC(=O)C1(C)O (stereo not drawn)
  ID4 SMM: i

COC(=O)C1=COC(C)C2CN3CCc4c([nH]c5cc(OC)ccc45)C3CC12 (stereo not drawn)
  ID4 SMM: i

CC(C)Nc1nc(Cl)nc(NC(C)C)n1
  ID4 SMM: i

CC(C)(C)c1cc(C=C(C#N)C#N)cc(C(C)(C)C)c1O
  ID4 SMM: i

CC(=O)c1ccccc1NC(=O)C1C2CCC(O2)C1C(=O)O (stereo not drawn)
  ID4 SMM: i

CC1CCCCCC(=O)c2c(O)cc(O)cc2CC(=O)O1 (stereo not drawn)
  ID4 SMM: i

Part of the list above, comma-delimited.
compound,ID4 SMM
CCc1ccc(NC2=NCCS2)cc1,i
OC[C@H]1O[C@@H](n2cnc3cc(Cl)c(Cl)cc32)C(O)[C@H]1O (stereo partly drawn),i
C/C=C(\C)C(=O)OC1C(C)=C2C(C1OC(=O)CCCCCCC)C(C)(OC(C)=O)CC(OC(=O)CCC)C1(O)C2OC(=O)C1(C)O (stereo not drawn),i
COC(=O)C1=COC(C)C2CN3CCc4c([nH]c5cc(OC)ccc45)C3CC12 (stereo not drawn),i
CC(C)Nc1nc(Cl)nc(NC(C)C)n1,i
CC(C)(C)c1cc(C=C(C#N)C#N)cc(C(C)(C)C)c1O,i

The list goes on:
O=c1[nH]c(=O)n(-c2ccccc2F)c(O)c1C=NCCC1=CCCCC1
  ID4 SMM: i

O=C(O)Cn1cc(C(=O)c2ccccc2)c2ccccc21
  ID4 SMM: i

O=c1c2ccccc2nc(CSc2ccccn2)n1-c1cccc(C(F)(F)F)c1
  ID4 SMM: i

CCCCn1c(=O)c(C(=O)NCc2ccccn2)c(O)c2ccccc21
  ID4 SMM: i

CSC1=NN1c1cc(C)nc(N)n1
  ID4 SMM: i

COc1cccc(CNCCc2c[nH]c3ccccc23)c1O
  ID4 SMM: i

COP(=S)(OC)SCn1nnc2ccccc2c1=O
  ID4 SMM: i

O=C(NC(=O)c1ccccc1Cl)Nc1ccc2c(c1)S(=O)(=O)C=C2
  ID4 SMM: i

C[C@@]12C[C@@H](c3ccoc3)OC(=O)C1CC[C@]1(C)[C@H]2[C@H]2C=C[C@]1(O)C(=O)O2 (stereo partly drawn)
  ID4 SMM: i

Clc1ccc(C(c2ccc(Cl)cc2)C(Cl)(Cl)Cl)cc1
  ID4 SMM: i

An excerpt from above in order of formula weight, lowest first.
CCCCn1c(=O)c(C(=O)NCc2ccccn2)c(O)c2ccccc21
  ID4 SMM: i

O=c1[nH]c(=O)n(-c2ccccc2F)c(O)c1C=NCCC1=CCCCC1
  ID4 SMM: i

O=c1c2ccccc2nc(CSc2ccccn2)n1-c1cccc(C(F)(F)F)c1
  ID4 SMM: i

Next section
FC(F)(F)c1cccc(N2CCNCC2)c1
  ID4 SMM: i

C[C@]12N[C@H](Cc3ccccc31)c1ccccc12
  ID4 SMM: i

CC(N)Cc1c[nH]c2ccc(OCc3cccs3)cc12 (stereo not drawn)
  ID4 SMM: i

COc1ccc(CC2C(=O)OCC2Cc2ccc3c(c2)OCO3)cc1OC (stereo not drawn)
  ID4 SMM: i

O=C(Cn1cc(C(=O)c2ccccc2)c2ccccc21)Nc1ccc(Br)cc1
  ID4 SMM: i

COc1ccccc1N1C(=O)NC(=O)C(CCc2ccncc2)(Cc2cccc3ccccc23)C1=O (stereo not drawn)
  ID4 SMM: i

CC[C@@H](CO)NC(=O)[C@@H]1C=C2c3cccc4[nH]cc(c34)C[C@H]2N(C)C1
  ID4 SMM: i

CC(N)Cc1ccc(O)cc1 (stereo not drawn)
  ID4 SMM: i

Cc1ccc2c(c1)-c1cc(C)nn1C(c1cccnc1)N2 (stereo not drawn)
  ID4 SMM: i

CCc1cccc(C)c1N(C(=O)CCl)C(C)COC (stereo not drawn)
  ID4 SMM: i

In another format: entries from further up.
canonical_smiles,ID4 SMM
CC(N)Cc1ccc(O)cc1 (stereo not drawn),i
Cc1ccc2c(c1)-c1cc(C)nn1C(c1cccnc1)N2 (stereo not drawn),i

New compounds follow
O=C(NC(=O)c1c(F)cccc1F)Nc1cc(Cl)c(OC(F)(F)C(F)C(F)(F)F)cc1Cl (stereo not drawn)
  ID4 SMM: i

Cc1ccc2cc3c(ccc4ccccc43)c3c2c1CC3
  ID4 SMM: i

COC(=O)C1=CO[C@H](C)[C@@H]2CN3CCC4(C(=O)Nc5ccccc54)C3C[C@H]12 (stereo partly drawn)
  ID4 SMM: i

NCC(CS(=O)(=O)O)c1ccc(Cl)cc1 (stereo not drawn)
  ID4 SMM: i

CCNC(=S)N1CCN(CC(=O)Nc2ccc(Cl)cc2C(=O)c2ccccc2)CC1
  ID4 SMM: i

Cc1ccc(N2C(=O)NC(=O)C(CCc3ccccn3)(Cc3ccc(F)cc3)C2=O)cc1 (stereo not drawn)
  ID4 SMM: i

c1ccc(C2CNCc3ccccc32)cc1 (stereo not drawn)
  ID4 SMM: i

Screening data deposited in PubChem by Broad Institute.

Only part of the results is shown; count on the stated rates, not on these rows.
